Cruzain inh noDet = cruzain (T. cruzi) inhibition without detergent | P25779 | purified cruzain, Z-FR-AMC fluorescence, no detergent | Potency, µM, inactives show max response, negative = inhibition, most hits filed as inhibitors | actives 2.3% (n = 200,000) | AID 1476; active = well fitted curve in the direction sought with a large enough effect; inconclusive = small, poorly fitted or top-dose-only effect, or another doubt; inactive = no such curve, though single readings can be large; an effect the other way counts as inactive or inconclusive;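 also: plate controls were enzyme without inhibitor for no effect and buffer without enzyme for full effect; nearly all actives have a fitted effect of over 40% in size; top concentration of the series not given in the record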
Target sequence (P25779 123-467 limits assumed): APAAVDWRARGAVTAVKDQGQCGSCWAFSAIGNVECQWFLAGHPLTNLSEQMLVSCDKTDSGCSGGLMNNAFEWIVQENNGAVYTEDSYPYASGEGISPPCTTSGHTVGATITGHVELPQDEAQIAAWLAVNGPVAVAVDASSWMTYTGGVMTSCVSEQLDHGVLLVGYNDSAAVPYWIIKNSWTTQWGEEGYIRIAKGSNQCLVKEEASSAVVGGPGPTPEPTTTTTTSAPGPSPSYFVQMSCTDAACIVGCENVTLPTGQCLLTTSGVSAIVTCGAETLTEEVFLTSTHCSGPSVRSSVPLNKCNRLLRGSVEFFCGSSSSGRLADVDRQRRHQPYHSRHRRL
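Purified cruzain at 1.5 nM, pre-incubated 15 min with compound at room temperature in 100 mM sodium acetate pH 5.5, 5 mM DTT, 0.00005% Triton X-100. Reaction started with 2 uM Z-FR-AMC; AMC fluorescence increase over 60 s gives rate.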
Marburg entry inh = blocks Marburg virus binding to or entry into cells; Potency, µM (titrated, usually from 37.8 µM), for the others: at the top dose activity change, negative = inhibition, usual class: inhibitors; Marburg virus pseudotyped entry inhibition, cell reporter; control for the full effect not named in the record; about a third of the inactives were read at about 46 µM; actives 1.8% (n = 300,000); active = well fitted inhibition curve with a large enough effect; inconclusive = small, poorly fitted or top-dose-only effect, or effect the other way; inactive = flat fitted curve, though single readings scatter; tested in HEK293 cells; about a fifth of its hits are not listed in these tables; also: % is scaled to controls: 0 for no effect and ±100 for the full control effect; luciferase read-out
Cruzain inh Det = cruzain (T. cruzi) inhibition with detergent; purified cruzain, Z-FR-AMC fluorescence, 0.01% Triton; Potency, µM, inactives show max response, negative = inhibition, usual class: inhibitors; actives 0.43% (n = 200,000); P25779; active = well fitted curve in the direction sought with a large enough effect; inconclusive = small, poorly fitted or top-dose-only effect, or another doubt; inactive = no such curve, though single readings can be large; an effect the other way counts as inactive or inconclusive;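 also: plate controls were neutral wells for no effect and buffer without enzyme for full effect; nearly all actives have a fitted effect of over 40% in size; top concentration of the series not given in the record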
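In this qHTS format, compounds are incubated with 1.5 nM cruzain for 15 min at room temperature before 2 uM Z-FR-AMC is added. Release of AMC is followed at 360/450 nm, and progress is taken as the 60 s fluorescence difference.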
StopGo reporter = FMDV 2A StopGo reporter, luciferase signal; actives 1.2% (n = 410,000); Potency, µM (doses to about 57.9 µM), inactives show at the top dose signal change, negative = less light; AID 1159524; human cells with a luciferase reporter of 2A StopGo recoding; control for the full effect not named in the record; active = well fitted falling curve with a large enough effect; inconclusive = small, poorly fitted or top-dose-only effect; inactive = no such curve, though single readings can be large or run the other way; tested in HEK293T cells; also: % is scaled to controls: 0 for no effect and ±100 for the full control effect; nearly all actives have a fitted effect of over 45% in size; luciferase light after 4 h
NS1 inh = inhibitors of influenza NS1 protein function; S. cerevisiae slowed by influenza A NS1, growth recovery by OD600; Potency, µM (titrated, usually from 46.1 µM), without a hit: top-dose activity, positive = more growth; actives 0.4% (n = 270,000); AID 2326; also: actives are rising curves; nearly all actives have a fitted effect of over 50% in size
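Growth recovery, yeast-based: influenza A NS1 expressed in S. cerevisiae causes slow growth, and suppressors are detected by OD600. The parent strain without NS1 is used as positive control.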
SARS PLP yeast = SARS-CoV PLP inhibition in yeast; actives 0.19% (n = 330,000); Potency, µM (doses to about 32.9 µM), for inactives: top-dose activity, positive = growth rescue; S. cerevisiae expressing SARS-CoV PLpro, growth rescue; control for the full effect not named in the record; AID 485353; also: 0% is about no effect; nearly all actives have a fitted effect of over 55% in size; growth read by luminescence after 48 h
RE007 growth inh = less growth of the S. pombe RE007 Vpr strain | Potency, µM (doses to about 92.2 µM), inactives show at the top dose activity change, negative = less growth | actives 0.21% (n = 360,000) | S. pombe RE007 Vpr strain, BacTiter-Glo ATP luminescence, 24 h; control for the full effect not named in the record; active = well fitted falling curve with a large enough effect; inconclusive = small, poorly fitted or top-dose-only effect; inactive = no such curve, though single readings can be large or run the other way;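 also: % is scaled to controls: 0 for no effect and ±100 for the full control effect; nearly all actives have a fitted effect of over 50% in size; the assay follows cell death caused by Vpr and the record does not say whether a fall means rescue or toxicity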
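Fission yeast RE007 carrying one integrated HIV-1 vpr copy, seeded at OD 0.01 in PMG+AL medium with 23 nL pinned compound. Grown 24 h at 30 degrees; viability read by BacTiter-Glo luminescence after 5 min.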
LASV entry inh = blocks Lassa virus binding to or entry into cells; Potency, µM (titrated, usually from 37.9 µM), for inactives: top-dose activity change, negative = inhibition, most hits filed as inhibitors; Lassa virus pseudotype entry inhibition, cell reporter; control for the full effect not named in the record; actives 1.2% (n = 300,000); active means well fitted inhibition curve with a large enough effect; inconclusive means small, poorly fitted or top-dose-only effect, or effect the other way; inactive means flat fitted curve, though single readings scatter; tested in HEK293 cells; also: % is scaled to controls: 0 for no effect and ±100 for the full control effect; nearly all actives have a fitted effect of over 50% in size; luciferase read-out
Active calls of the source: *; ? = inconclusive; / = not tested or not shown; & = joins results of further samples; [ ] = another dose, or the depositor's remark. Unless noted, calls follow the shape of the dose curve; as a rule, active means well fitted rising curve with a large enough effect; inconclusive means small, poorly fitted or top-dose-only effect; inactive means no such curve, though single readings can be large or run the other way. Potency is read from the fitted curve at half-maximal effect. Rows were taken by chance; about 4.7% have a hit in one of these screens.

SMILES | Cruzain inh noDet | Marburg entry inh | Cruzain inh Det | StopGo reporter | NS1 inh | SARS PLP yeast | RE007 growth inh | LASV entry inh
CC1(C)Oc2ccc3ccc(=O)oc3c2C[C@H]1O | / | / | / | 5% | 4% | -4% | -6% | /
CC(=O)Nc1ccc(SCC(=O)OCC(=O)NC(=O)NCc2ccco2)cc1 | -1% | 9%&9% | -5.6% | 2% | -2% | 6% | -7% | 12%
O=C(CSCc1nc2c(nnn2Cc2ccc(F)cc2)c(=O)[nH]1)Nc1cccc(C(F)(F)F)c1 | / | -1% | / | -7% | 5% | 0% | 0% | 28%
CC(=O)Nc1ccc(S(=O)(=O)Nc2nc3ccccc3s2)cc1 | -8% | 19% | 0.4% | 135%[activator] | 1% | -4% | 3% | 17%
CC(=O)c1cc(-c2ccc(F)cc2)n(CC(=O)NCc2cccs2)c1C | -5% | -23%[46.1 µM] | -3.1% | -1% | 3% | 0% | -10% | 1%
Cc1cc(Cl)ccc1NC(=O)C1COc2ccccc2O1 (stereo not given) | / | / | / | 69%[activator] | -41% | -12% | 12% | /
NC(=O)Cc1ccc(C(=O)c2ccccc2)s1 | / | 0%[46.1 µM] | / | 15% | -3% | -2% | 42% | 6%[46.1 µM]
CCC1CCCCN1CCCNC(=O)c1ccc2c(c1)sc1nc(-c3ccc(F)cc3)cn12 (stereo not given) | 4% | / | 0.4% | 42%[activator] | / | / | / | ?
COc1cccc(-c2nc(N3CC(C)CC(C)C3)c3ccccc3n2)c1O (stereo not given) | -9% | ? | 8.0% | ? | 8% | 6% | 24% | ?
C=CCN1C(=O)C(CC(=O)Nc2ccccc2)N(Cc2ccccn2)C1=S (stereo not given) | / | 8%[46.1 µM] | / | 15% | / | -3% | -5% | ?
O=P(NCc1ccccc1)(OCc1ccccc1)OCc1ccccc1 | / | -8% | / | 79%[activator] | / | / | -1% | 2%[46.1 µM]
COc1ccccc1OCC(=O)Nc1ccc(N2CCOCC2)cc1N1CCOCC1 | / | -2% | / | -2% | / | 7% | -8% | 11%
CC1CC(C)CN(C(=O)/C=C/c2ccc(S(=O)(=O)N3CCOCC3)cc2)C1 (stereo not given) | / | -20% | / | -25% | / | 2% | 4% | -17%
COc1cc(-c2nc3ccccn3c2/N=C/c2cccc(OC)c2O)ccc1O | / | 25%[46.1 µM] | / | 15% | / | 0% | -18% | 6%
CCCCC[C@H](O)/C=C/[C@@H]1[C@@H](CCCCCCC(=O)O)[C@@H](O)C[C@H]1O | ? | 9% | 3.3%&2.6% | -9% | 5% | 0% | 3%[18.4 µM] | ?
O=C(NCc1ccccc1Cl)c1ccc2c(c1)N(Cc1ccccc1)CCS2 | ? | ? | -11% | 52%[activator] | / | / | / | -24%[46.1 µM]
CCCCN(C(=O)Cn1nnc2ccccc21)C(C(=O)NCCOC)c1ccc(OC)cc1OC (stereo not given) | 16% | 3%&6% | -2.7% | 7% | -3% | 0% | -14% | -4%
Cc1ccc(C)c(CN2C(=O)c3ccccc3S(=O)(=O)c3ccc(C(=O)N4CCCC4)cc32)c1 | ? | ? | -2.0% | 0% | / | / | / | -18%[46.1 µM]
COc1ccc(S(=O)(=O)N(c2onc(C)c2Cl)S(=O)(=O)c2ccc(OC)cc2)cc1 | -4% | 3% | -1.0% | 38%[activator] | -1% | ? | 10% | 15%
CCCOc1cccc(NC(=O)OC2CCN(C)CC2)c1 | 1% | ? | -0.9% | -7% | 2% | 22% | 15% | 9%
COc1cc(OC)cc(C(=O)Nc2cccc(-c3cn4ccsc4n3)c2)c1 | -2% | / | -4.1% | 8% | / | / | / | -10%[46.1 µM]
Cc1ccccc1C(OCCN(C)C)C1CCCCC1 (stereo not given) | -4% | ? | -1.2% | -2% | -8% | -3% | 3% | ?
Cc1ccc(Nc2nc(C(=O)NCC3CCCO3)cs2)cc1 (stereo not given) | / | 3% | / | -8% | -53% | -1% | 21% | /
CCc1ccccc1NC(=S)N(CCN(C)C)C(C)c1cccnc1 (stereo not given) | / | 27%[46.1 µM] | / | -2% | / | -3% | 20% | -16%
CC(=O)Nc1nonc1NC(C)=O | -6% | -1% | 3.8% | -7% | ? | 1% | -9% | 0%
CCc1ccc(CN2C(=O)c3ccccc3C2C(=O)NCc2cccnc2)cc1 (stereo not given) | / | 6%[46.1 µM] | / | -11% | / | 3% | -7% | -28%
Cc1[nH]c2c(Cl)cccc2c1CCN | 5% | ? | 4.7% | 11% | -6% | 4% | -1% | 0%
Cc1ccnc(NC(=O)c2ccc(S(=O)(=O)N3CCCCCC3)cc2)c1 | / | -49% | / | 7% | / | -5% | -11% | ?
O=[n+]1cc(-c2ccccc2)n([O-])c2c1CCC2 | -1% | 20% | -3.2% | -24% | -9% | 3% | 18% | 4%
CCOC(=O)c1nn(-c2ccccc2)c2nc(Nc3ccccc3)cc(=O)n12 | -3% | 1% | 0.5% | -3% | 16% | 3%[6.58 µM] | 11% | -6%
COc1ccc(/C=N/NC(=O)C(C)n2cnc3ccccc3c2=O)cc1 (stereo not given) | -4% | ? | -1.9% | 6% | 4% | 13% | -5% | ?
CCCNC(=O)c1ccccc1NC(=O)COc1ccc(OC)cc1 | 3% | 17% | -7.4% | -26% | 0% | -7% | -4% | 10%
COc1ccc(CNC(=O)CCN2C(=O)c3ccncc3C2=O)cc1OC | / | 1%[46.1 µM] | / | 54%[activator] | 6% | 0% | -2% | 12%
CC(=O)/C(N=Nc1cccc(C(F)(F)F)c1)=C(\C)O | / | 3%[46.1 µM] | / | 4% | / | 2% | 10% | 11%[46.1 µM]
O=C(Nc1ccc(Br)cc1)C(Cc1ccccc1)NS(=O)(=O)c1cccc2nsnc12 (stereo not given) | -2% | / | -0.1% | 22% | / | / | / | -14%[46.1 µM]
O=C(CSc1nc2nc3c(cc2c(=O)n1-c1ccccc1)CCCC3)Nc1ccccc1 | 10% | -16% | 2.3% | -5% | 3% | -21% | 5% | -5%
Cc1cc(NCCC(C)C)n2nc(C)c(-c3ccccc3)c2n1 | -2% | ? | -6.2% | 1% | -17% | -57% | 6% | -6%
O=C(Oc1ccc(N(Cc2cccs2)C2=NS(=O)(=O)c3ccccc32)cc1)c1ccccc1Cl | 10µM* | 21% | 0.7% | -24% | 5% | 10% | -26% | -15%
CCCCCN(C(=O)CCC(=O)OCc1cccc(C)c1)c1c(N)n(CCCC)c(=O)[nH]c1=O | / | 3% | / | -17% | / | -7% | -14% | 24%
CCCCC(CC)CNC(=O)C(=O)c1ccccc1NC(C)=O (stereo not given) | -2% | ? | -5.2% | -13% | 10% | ? | 18% | 3%

Part of the list above, with two lines to a compound.
Sequence of screens – Cruzain inh noDet, Marburg entry inh, Cruzain inh Det, StopGo reporter, NS1 inh, SARS PLP yeast, RE007 growth inh, LASV entry inh
Cc1ccccc1C(OCCN(C)C)C1CCCCC1 (stereo not given)
→ -4%, ?, -1.2%, -2%, -8%, -3%, 3%, ?
COc1ccc(CNC(=O)CCN2C(=O)c3ccncc3C2=O)cc1OC
→ /, 1%[46.1 µM], /, 54%[activator], 6%, 0%, -2%, 12%

Next section:
SMILES | Cruzain inh noDet | Marburg entry inh | Cruzain inh Det | StopGo reporter | NS1 inh | SARS PLP yeast | RE007 growth inh | LASV entry inh
COc1ccccc1C(=O)OCn1nnc2ccccc2c1=O | / | / | / | -17% | 7%&-1% | 0% | -5% | /
CCc1ccc2oc(-c3cc(N)cc(C)c3O)nc2c1 | -14% | ? | 0.8% | -10% | 14µM* | -1% | -13% | ?
O=C(COc1ccccc1F)N1CCN(S(=O)(=O)/C=C/c2ccccc2)CC1 | -10% | 14% | -2.1% | -11% | -4% | 9% | 6% | -11%
CCNc1ccc(C(=O)O)cc1N | -13% | ? | -5.3% | -7% | 3% | 2% | -19% | -23%
O=C(NCC1CCN(c2ccc(S(=O)(=O)N3CCOCC3)cc2)CC1)c1cccc(Cl)c1 | 26% | ? | -2.7% | / | 13% | 3% | 10% | -3%
CCC(C)C(NC(=O)c1ccc(Cl)cc1Cl)C(=O)O (stereo not given) | 3% | -4% | 0.6% | -9% | 0% | -12% | 3% | -19%
O=C(CSc1nc2ccc(Cl)cc2[nH]1)NCCc1ccccc1 | -17% | ? | -7.8% | ? | 11% | -3% | -3% | -9%
COc1cc(CN2CCc3ccc(NC(=O)CCc4ccccc4OC)cc3C2)ccc1O | / | / | / | -1% | 2% | -3% | -11% | /
CCOc1ccc(CCNC(=O)c2cc([N+](=O)[O-])ccc2N2CCOCC2)cc1OCC | / | ? | / | -18% | -14% | -1% | -8% | 6%
O=C(O)c1cc2ncc(-c3[nH]ncc3[N+](=O)[O-])cn2n1 | / | -7%[46.1 µM] | / | 1% | / | 3% | -5% | 6%[46.1 µM]
COc1cc(-c2cc(-c3ccc(O)cc3)nc(N)c2C#N)ccc1O | / | ? | / | -13% | ? | -1% | -3% | ?
c1ccc2c(Nc3nncs3)c3ccccc3nc2c1 | / | / | / | 10% | 2% | 2% | -3% | /
Nc1c(-c2ccccc2)sc2ccc3ccccc3[n+]12 | / | / | / | 0% | -4% | 14% | ? | /
O=S(=O)(Nc1ncccn1)c1ccccc1 | / | -4% | / | 3% | 22% | 7% | -10% | -12%
CCOC(=O)C(Oc1ccc2c(-c3ccc(OC)cc3)cc(=O)oc2c1C)c1ccccc1 (stereo not given) | ? | ? | -2.5% | ? | 29% | 4% | -18% | 13µM*
CN(C)C(=O)COc1ncnc2scc(-c3ccc(F)cc3)c12 | / | ? | / | 10% | / | 2% | -11% | 3%
CC(=O)c1cc(CN2CCC(n3nccc3NC(=O)c3ccccc3)CC2)cs1 | / | 1% | / | -17% | -2% | -4% | 1% | 2%
COc1ccc(-c2nnn3c2nc(NCCc2ccc(OC)c(OC)c2)c2ccccc23)cc1 | 1% | 4%[46.1 µM] | -2.2% | ? | / | / | / | 6%[46.1 µM]
Cc1nc(SCC(=O)Nc2ccccc2Cl)oc1C | / | 7%[46.1 µM] | / | -16% | -13% | -4% | 4% | 18%[46.1 µM]
